VDR inhibitor – vitamin D3 receptor (human) inhibition. AID 504847. 0.93% of 400,000 active. Potency, µM, for inactives: max response, negative = inhibition, usual class: inhibitors. VDR-SRC2-3 peptide fluorescence polarization, 2 h; active = well fitted inhibition curve with a large enough effect; inconclusive = small, poorly fitted or top-dose-only effect, or another doubt; inactive = no such curve, though single readings can be large or run the other way; note: series mostly up to about 120 µM
Target sequence (P11473 whole entry, looked up): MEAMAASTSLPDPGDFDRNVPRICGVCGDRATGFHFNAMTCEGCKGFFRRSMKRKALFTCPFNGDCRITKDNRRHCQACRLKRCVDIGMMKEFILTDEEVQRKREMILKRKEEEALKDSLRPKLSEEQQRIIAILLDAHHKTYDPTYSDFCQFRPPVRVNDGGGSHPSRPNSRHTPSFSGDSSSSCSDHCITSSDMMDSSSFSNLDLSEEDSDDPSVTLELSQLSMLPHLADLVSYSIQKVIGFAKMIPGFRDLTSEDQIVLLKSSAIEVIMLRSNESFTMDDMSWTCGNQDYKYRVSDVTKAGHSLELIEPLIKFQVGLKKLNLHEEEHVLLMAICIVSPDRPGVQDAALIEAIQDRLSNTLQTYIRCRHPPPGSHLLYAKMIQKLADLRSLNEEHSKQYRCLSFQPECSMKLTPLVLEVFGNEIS
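Two reagent solutions held at 4 deg C in the dark were dispensed, compounds pinned at 23 nl, and the mixture incubated 2 h at room temperature. Read-out: fluorescence polarization of VDR–SRC2-3 peptide binding.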
* hit, by the source's call; ? = inconclusive; & = joins results of further samples. % is set by controls: 0 for no effect and ±100 for the full control effect; potency is the fitted concentration of half-maximal effect. An excerpt; rates above refer to the full screens.

SMILES | VDR inhibitor
O=C1CC2(CCN(C(=O)COc3ccccc3F)CC2)Oc2ccccc21 | 1%
CCc1ccc(C(=O)c2cn(CC(=O)Nc3cccc(OC)c3)c3ccc(OC)cc3c2=O)cc1 | -15%
CC(=O)Nc1ccc(S(=O)(=O)NCCS(=O)(=O)N2CCN(c3ccccc3F)CC2)cc1 | 6%&5%
COC(=O)Cc1c(O)ccn(CCc2ccc(S(N)(=O)=O)cc2)c1=O | 9%
Cc1oc2c(c1C(=O)N1CCC(C)CC1)C(=O)c1ccccc1C2=O | -5%
CC(C)(Oc1ccc(Cl)cc1)C(=O)Nc1ccncc1 | 10%
COc1ccc2nc(NC(=O)CSc3nnnn3C3CCCCC3)sc2c1 | 15%
CCCCn1nc(C(=O)N(CC(C)C)c2c(N)n(CCCC)c(=O)[nH]c2=O)c2ccccc2c1=O | -27%
CC1CN(CCOc2ccc(Cl)c(Cl)c2)CC(C)O1 (centres undefined) | 15%
COc1ccc(OC(C)C(=O)Nc2ccccc2C(F)(F)F)cc1 (centres undefined) | 4%
CCCc1nc(SCc2cccnc2)c2c(=O)n(C)c(=O)n(C)c2n1 | -7%
O=C(CSc1nnc2c(Cl)cc(Cl)cn12)N1CCOCC1 | -12%
CN(Nc1cccc(Cl)c1)c1cccc(Cl)c1 | -10%
Cc1cccc(NC(=O)CSc2nc(=O)n(Cc3ccco3)c3c2CCC3)c1C | -2%
CCC(=O)Nc1ccc(S(=O)(=O)N2CCc3ccccc32)cc1 | -1%
COc1cc(/C=N/Nc2ccccn2)cc(OC)c1O | -3%
CCOC(=O)CCNC(=O)N1CCCC(Cc2ccccc2)(C(=O)OCC)C1 (centres undefined) | -3%
COc1ccc(Cc2nc3ccc(C(=O)NCCc4ccc(OC)c(OC)c4)cc3o2)cc1 | 13%
CC(NC(=O)CCNC(=O)c1ccc(Br)cc1)c1ccc(-n2ccnc2)cc1 (centres undefined) | -5%
c1ccc(-n2c(SCc3nc(-c4cccs4)no3)nnc2-c2ccco2)cc1 | 3%
CN1C2Cc3c(n(C)c4ccccc34)C1CC=C2CO (centres undefined) | -12%
Cc1nc2nc(NC(=O)C(C)C)[nH]n2c(=O)c1Cc1ccccc1 | 2%
O=C(O)c1ccc(N=Nc2c(O)[nH]c3cc(Cl)ccc23)cc1 | -3%
S=C(NC1CCCCC1)NN(c1ccccc1)c1ccccc1 | -3%
N/C(=N\OC(=O)C1CCCCC1)c1cccc(Br)c1 | 0%
CCn1c(SCC(N)=O)nnc1-c1ccco1 | 4%
COC(=O)c1cccc(N2C(=O)C(Cl)=C(N3CCOCC3)C2=O)c1 | ?
COc1ccc(C(=O)Nc2cccc(-c3ccc(N4CCOCC4)nn3)c2)cc1 | -20%
CCOC(=O)c1ccc(NC(=O)CC2C(=O)N(c3ccc(F)cc3)C(=O)N2CCC(C)C)cc1 (centres undefined) | 18%
C=CCn1c(SCc2ccc3c(c2)OCO3)nc2scc(-c3ccco3)c2c1=O | -6%
CCCC(=O)OC(C(=O)Nc1cc(C(F)(F)F)ccc1Cl)c1ccccc1 (centres undefined) | -13%
CCOC(=O)c1sc2nc(C3CC3)cc(-c3ccc(OC)cc3)c2c1N | 10%
O=C(CSc1ccccc1C(=O)NCc1ccccc1)NC12CC3CC(CC(C3)C1)C2 | 5%
O=C(NC1CC(=O)N(c2cccc(F)c2)C1)c1ccc2c(c1)OCO2 (centres undefined) | 0%
Clc1cc(Sc2ccc(Br)cc2)nnc1-c1ccccc1 | -5%
Cc1ccc(CNC(=O)CN(C(=O)N2CCN(C)CC2)S(=O)(=O)c2ccc(C)cc2)cc1 | 7%
Nc1nc(SCC(=O)c2cc(F)ccc2F)n[nH]1 | 5%
O=P(OC1CCCCC1)(OC1CCCCC1)C(O)c1ccccc1 (centres undefined) | 3%
O=C(c1ccc(-n2cncn2)c([N+](=O)[O-])c1)N1CCN(S(=O)(=O)c2ccc(Cl)cc2)CC1 | -7%
CCCCCCCC1(C)NC(=O)N(c2ccccc2)N1 (centres undefined) | -18%
C/C(=N\NC(=S)Nc1ccccc1C)c1cc2ccccc2o1 | -24%
CCC1C(=O)Nc2ccccc2N1C(=O)COc1ccccc1 (centres undefined) | -8%
CCC1CN(C(=O)N2CCC(C(=O)NCCc3ccc(OC)c(OC)c3)CC2)c2ccccc2O1 (centres undefined) | 4%&7%
CCC(C)(C)c1nnc(NC(=O)CCC2CCCCC2)s1 | -7%
CCc1nnc2c(Nc3ccccc3Br)nc3ccccc3n12 | 11%
COc1ccc(Cl)cc1NC(=O)C(C)OC(=O)C1=NNC(=O)CC1 (centres undefined) | 11%
CCC1=C(OC(=O)N(CC)CC)N2C(=O)OC(=NCCc3c[nH]c4ccccc34)[C@]2(Cc2ccccc2)[C@H]2C1=CC[C@H]1C(=O)N(C)C(=O)[C@H]12 | 7%
O=C(O)c1nn(CCOc2cccc(Br)c2)c(=O)c2ccccc12 | -11%
CC(C)c1ccc(NC(=O)C2CCCN(S(=O)(=O)c3ccc4c(c3)C(C)(C)C(=O)N4C)C2)cc1 (centres undefined) | -6%
O=C(c1cc2ccccc2[nH]1)N(Cc1cccnc1)CC1CCCN(C2CCCCC2)C1 (centres undefined) | 11%
Cc1cccc(-c2cccc(-c3cc(=O)oc4cc5c(cc34)OCO5)c2)c1 | 3%
O=C(c1ccc(N2CCCCC2)c([N+](=O)[O-])c1)N(Cc1ccccc1)c1ccccn1 | 7%
CC(C)c1ccc(NC(=O)COC(=O)[C@@H]2CCCN2C(=O)c2cccs2)cc1 | 5%
CCN1C(=O)[C@H]2[C@@H](c3ccc(C)cc3)N3C(=O)N(c4ccc(C(F)(F)F)cc4)C(=O)[C@@]3(CC)[C@H]2C1=O | 3%
COc1ccc(Nc2cc(C)nc3nc(C)nn23)c(OC)c1 | -18%
COc1ccc(CNC2=CC(=O)CC(C)(C)C2)cc1 | -5%
COc1cc(/C=C/c2ccccc2)cc(OC)c1 | 0%
CCOC(=O)/C(C#N)=C/C1=C(N2CCOCC2)CC(C)(C)OC1 | -18%
CCOC(=O)C1=C(C)N=C(/N=C/N(C)C)SC1c1ccccc1 (centres undefined) | 16%
C#CCSc1nc2sc3c(c2c(=O)n1-c1cccc(OC)c1)CCN(C(C)=O)C3 | -12%

Overlap with the part before: five compounds, followed by the next part.
SMILES | VDR inhibitor
COc1ccc(CNC2=CC(=O)CC(C)(C)C2)cc1 | -5%
COc1cc(/C=C/c2ccccc2)cc(OC)c1 | 0%
CCOC(=O)/C(C#N)=C/C1=C(N2CCOCC2)CC(C)(C)OC1 | -18%
CCOC(=O)C1=C(C)N=C(/N=C/N(C)C)SC1c1ccccc1 (centres undefined) | 16%
C#CCSc1nc2sc3c(c2c(=O)n1-c1cccc(OC)c1)CCN(C(C)=O)C3 | -12%
CCCCOc1ccc(/C=N/NC(=S)Nc2cc(C)ccc2C)cc1 | -6%
CC(=O)c1c(C)[nH]c(C(=O)NCCc2ccccc2)c1C | 7%
COCc1cc(=O)[nH]c(N2CCN(Cc3ccc4c(c3)OCO4)CC2)n1 | -18%
O=C(NNC(=S)NC(=O)c1ccc(F)cc1)c1cccnc1 | -3%
CC(C)C(=O)Nc1ccc(Cc2ccc(NC(=O)C(C)C)c(O)c2)cc1O | -10%
CCCCN(CCCC)C(=S)NC(=O)C(C)(C)C | -23%
COc1cc(NC(=O)C(Cc2ccccc2)n2cccc2)cc(OC)c1 (centres undefined) | 27%
O=C(CSc1ccccc1F)OCC(=O)N1CCN(C(=O)c2ccco2)CC1 | 8%
COc1ccc(C(CCc2ccc(C)o2)NC(=O)Nc2ccc(OC)cc2OC)cc1 (centres undefined) | -6%
O=C(NC(=S)N1CCCCC1)c1cccnc1 | -12%
O=C1C=C(c2cc(Cl)cc(Cl)c2)C[C@@H](c2ccc3c(c2)OCO3)C1 | -7%
COc1ccc(/C=N/NC(=O)c2ccc(Br)cc2)c(OC)c1 | 24%
CSc1ncccc1C(=O)OCC(=O)NCCc1ccccc1 | 7%
COC(=O)c1cc(-c2ccc(S(=O)(=O)N3CCCC(C)C3)cc2)c(C(F)(F)F)s1 (centres undefined) | -5%
O=C(NNC(=S)Nc1ccccc1)C1CC1 | -5%
COc1ccccc1C(c1c(O)nc(SC)[nH]c1=O)c1c(O)nc(SC)[nH]c1=O | -9%
CC1(C)CC(=O)c2cnc(NC(=O)CCc3ccccc3)nc2C1 | -5%
CCCn1c(CCC(=O)Nc2cccc(C)c2C)nc2cccnc21 | ?
Cc1nn(C)cc1/C=C1\SC(=S)NC1=O | 1%
CCCCC(=O)N1c2ccccc2C(C)(c2ccccc2)CC1(C)C (centres undefined) | -14%

Overlap with the part before: 2 compounds, followed by the next part.
SMILES | VDR inhibitor
Cc1nn(C)cc1/C=C1\SC(=S)NC1=O | 1%
CCCCC(=O)N1c2ccccc2C(C)(c2ccccc2)CC1(C)C (centres undefined) | -14%
COc1cccc(N2CCN(C(=O)c3ccc4nc(N5CCCCC5)sc4c3)CC2)c1 | -7%
COC(=O)c1ccc(C(C(=O)NCc2ccccc2)N(Cc2ccco2)C(=O)c2cnccn2)cc1 (centres undefined) | -1%
Cc1ccc(OCc2nc3ccccc3n2Cc2ccccc2Cl)cc1 | -5%
Cc1ccc(CN2CCc3nc(N4CCN(c5ccccc5F)CC4)ncc3C2)s1 | 15%
C/C(=N\NC(=O)c1ccc(OC2CCCC2)cc1)c1ccc(O)cc1 | -7%
NNC(=O)Cn1nc(Cc2ccccc2)n(N)c1=O | -13%
Cc1ccc(S(=O)(=O)c2cc3c(=O)n4cccc(C)c4nc3n(CCc3ccccc3)c2=N)cc1C | -6%
CC(=O)Oc1cccc(/C=c2\sc3nc(-c4ccco4)nn3c2=O)c1 | ?
C=CCn1c(COc2ccc(F)cc2)nnc1SCC(=O)NC1CC1 | 8%
Cc1c(C(=O)Nc2ccc(N3CCOCC3)cc2)cccc1[N+](=O)[O-] | 1%
Cc1ccc(C)c(Cc2c(C)nc(C)[nH]c2=O)c1 | 3%
O=C(NCC1CCCO1)C(Cc1ccccc1)N1C(=O)C2C3C=CC(C4CC34)C2C1=O (centres undefined) | ?
Cc1c(-c2ccccc2)c(=O)oc2c(CN3CCCC3)c(O)ccc12 | -11%
Cc1nn(Cc2c(F)c(F)c(F)c(F)c2F)c(C)c1NC(=O)c1cccc(COc2ccc(Cl)cc2)c1 | 7%
COc1ccccc1NS(=O)(=O)c1cccc(C(=O)N/N=C(\C)c2cccnc2)c1 | -7%
N#Cc1cccc(CS(=O)(=O)c2nc3ccccc3s2)c1 | ?
COc1cc(Cl)c(C)cc1NC(=O)Cn1c(C)c2cnn(-c3ccccc3)c(=O)c2c1C | 2%
O=C(NCc1ccccn1)C1CCN(S(=O)(=O)c2ccc(Br)cc2)CC1 | -16%
CSc1ccc(NC(=O)N2CC(C)OC(C)C2)cc1 (centres undefined) | 3%
COc1ccc(NC(=O)C(NC(=O)c2ccc(C)cc2)c2ccccc2)cc1 (centres undefined) | 3%
COc1ccc(S(=O)(=O)N2CCN(C(C)C(=O)Nc3ccc(C(C)C)cc3)CC2)cc1 (centres undefined) | -14%
COc1ccc(C2C=C(C34CC5CC(CC(C5)C3)C4)NC(=S)N2)cc1 (centres undefined) | ?
c1ccc(C2(CN3CCNC[C@H]3Cc3cccc4ccccc34)CC2)cc1 | 1%
COc1ccccc1NC(=S)NCc1cccnc1 | -5%
COc1ccc(/C=C/C(=O)N2CCCC2)cc1OC | -11%
CCCCOc1ccc(OC(=O)c2sc3ncn(Cc4cccc(F)c4)c(=O)c3c2C)cc1 | 11%
CC1CCN(C(=O)CN(CCc2ccccc2)S(C)(=O)=O)CC1 | 0%
O=S(=O)(C/C(=C/CO)S(=O)(=O)c1ccccc1)c1ccccc1 | ?
C=C(CO)C1Cc2cc(C(C)=O)ccc2O1 (centres undefined) | -15%
O=C(COc1cccnc1[N+](=O)[O-])N1CCc2ccccc2C1 | 9%
OC1(c2ccccc2)CNCCc2ccccc21 (centres undefined) | -11%
CC(=O)Nc1ccc(NC(=O)C(C)Sc2nc3nc(C)cc(C)n3n2)cc1 (centres undefined) | -12%
c1ccc2c(c1)ccc1[nH]c3c(c12)CCCC3 | -6%
Cc1[nH][nH]c(=O)c1C(c1ccc(-c2ccc(C(=O)O)cc2)o1)c1c(C)[nH][nH]c1=O | ?
COc1ccc(C(=O)N/C(=C\c2ccco2)C(=O)NCCCn2ccnc2)cc1 | -17%
CCOc1ccc(/C=C/c2nc(C#N)c(N3CCC(C)CC3)o2)cc1 | 9%
Nc1nc(CN2CCN(c3ccc(F)cc3)CC2)nc(N2CCCc3ccccc32)n1 | 3%

An excerpt from above in order of SMILES length, ascending:
SMILES | VDR inhibitor
C=C(CO)C1Cc2cc(C(C)=O)ccc2O1 (centres undefined) | -15%
c1ccc2c(c1)ccc1[nH]c3c(c12)CCCC3 | -6%
O=S(=O)(C/C(=C/CO)S(=O)(=O)c1ccccc1)c1ccccc1 | ?
COc1ccc(C(=O)N/C(=C\c2ccco2)C(=O)NCCCn2ccnc2)cc1 | -17%
Nc1nc(CN2CCN(c3ccc(F)cc3)CC2)nc(N2CCCc3ccccc32)n1 | 3%

Assay outcomes deposited in PubChem BioAssay by National Center for Advancing Translational Sciences (NCATS).
